Lassa entry inh = qHTS for Inhibitors of binding or entry into cells for Lassa Virus; Lassa virus pseudotype entry inhibition, cell reporter; control for the full effect not named in the record; AID 540256, 2011; Potency, µM (titrated, usually from 37.9 µM), for inactives: at the highest dose activity change, negative = inhibition, hits mostly inhibitors; 300,000 tested, 1.2% active; active means well fitted inhibition curve with a large enough effect; inconclusive means small, poorly fitted or top-dose-only effect, or effect the other way; inactive means flat fitted curve, though single readings scatter; tested in HEK293 cells; also: % is scaled to controls: 0 for no effect and ±100 for the full control effect; nearly all actives have a fitted effect of over 50% in size; luciferase read-out
Cruzain inh noDet = qHTS Assay for Promiscuous and Specific Inhibitors of Cruzain (without detergent) | Cruzipain (Trypanosoma cruzi), P25779 | purified cruzain, Z-FR-AMC fluorescence, no detergent | Potency, µM, for inactives: max response, negative = inhibition, most hits filed as inhibitors | 200,000 tested, 2.3% active | AID 1476, 2009;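 also: plate controls were enzyme without inhibitor for no effect and buffer without enzyme for full effect; nearly all actives have a fitted effect of over 40% in size; top concentration of the series not given in the record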
Target sequence (P25779 123-467 limits assumed): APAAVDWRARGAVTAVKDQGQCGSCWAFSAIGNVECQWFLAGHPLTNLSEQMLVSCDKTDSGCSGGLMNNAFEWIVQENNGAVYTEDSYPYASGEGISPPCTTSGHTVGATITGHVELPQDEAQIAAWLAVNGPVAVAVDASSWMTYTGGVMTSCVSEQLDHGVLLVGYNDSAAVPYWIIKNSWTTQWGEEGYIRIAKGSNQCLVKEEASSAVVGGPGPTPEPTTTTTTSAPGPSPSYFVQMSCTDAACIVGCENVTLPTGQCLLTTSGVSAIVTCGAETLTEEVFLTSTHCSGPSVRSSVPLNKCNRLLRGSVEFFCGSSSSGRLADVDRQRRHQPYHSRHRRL
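Purified cruzain at 1.5 nM, pre-incubated 15 min with compound at room temperature in 100 mM sodium acetate pH 5.5, 5 mM DTT, 0.00005% Triton X-100. Reaction started with 2 uM Z-FR-AMC; AMC fluorescence increase over 60 s gives rate.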
Cruzain Triton = qHTS Assay for Promiscuous and Specific Inhibitors of Cruzain (with detergent). Potency, µM, for inactives: max response, negative = inhibition, most hits filed as inhibitors. purified cruzain, Z-FR-AMC fluorescence, 0.01% Triton. 200,000 tested, 0.43% active. Cruzipain (Trypanosoma cruzi), P25779;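 also: plate controls were neutral wells for no effect and buffer without enzyme for full effect; nearly all actives have a fitted effect of over 40% in size; top concentration of the series not given in the record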
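Cruzain (1.5 nM) preincubated 15 min at RT with compound in 100 mM sodium acetate pH 5.5, 5 mM DTT, 0.01% Triton X-100. Reaction started with 2 uM Z-FR-AMC; AMC fluorescence (ex 360/em 450 nm) change over 60 s gave rate.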
NS1 inh = qHTS Assay for Inhibitors of Influenza NS1 Protein Function; AID 2326, 2010; Potency, µM (top dose mostly 46.1 µM), for inactives: at the top dose activity, positive = more growth; S. cerevisiae slowed by influenza A NS1, growth recovery by OD600; 270,000 tested, 0.4% active; active means well fitted rising curve with a large enough effect; inconclusive means small, poorly fitted or top-dose-only effect; inactive means no such curve, though single readings can be large or run the other way; also: nearly all actives have a fitted effect of over 50% in size
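Compounds were scored for reversing the slow growth caused by influenza A NS1 in S. cerevisiae, measured by optical density at 600 nm. Assay medium contained 2% galactose at pH 6.0; NS1-free yeast of the same strain were the positive control.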
RE007 growth inh = qHTS Assay for Inhibitors of the HIV-1 protein Vpr | S. pombe RE007 Vpr strain, BacTiter-Glo ATP luminescence, 24 h; control for the full effect not named in the record | Potency, µM (top dose mostly 92.2 µM), for the others: at the top dose activity change, negative = less growth | 360,000 tested, 0.21% active; active = well fitted falling curve with a large enough effect; inconclusive = small, poorly fitted or top-dose-only effect; inactive = no such curve, though single readings can be large or run the other way;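 also: % is scaled to controls: 0 for no effect and ±100 for the full control effect; nearly all actives have a fitted effect of over 50% in size; the assay follows cell death caused by Vpr and the record does not say whether a fall means rescue or toxicity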
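Fission yeast RE007 carrying one integrated HIV-1 vpr copy, seeded at OD 0.01 in PMG+AL medium with 23 nL pinned compound. Grown 24 h at 30 degrees; viability read by BacTiter-Glo luminescence after 5 min.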
Marburg entry inh = qHTS for inhibitors of binding or entry into cells for Marburg Virus; Marburg virus pseudotyped entry inhibition, cell reporter; control for the full effect not named in the record; about a third of the inactives were read at about 46 µM; Potency, µM (titrated, usually from 37.8 µM), without a hit: top-dose activity change, negative = inhibition, usual class: inhibitors; 300,000 tested, 1.8% active; AID 540276, 2011; active = well fitted inhibition curve with a large enough effect; inconclusive = small, poorly fitted or top-dose-only effect, or effect the other way; inactive = flat fitted curve, though single readings scatter; tested in HEK293 cells; about a fifth of its hits are not listed in these tables; also: % is scaled to controls: 0 for no effect and ±100 for the full control effect; luciferase read-out
SARS PLpro yeast = qHTS of Yeast-based Assay for SARS-CoV PLP. S. cerevisiae expressing SARS-CoV PLpro, growth rescue; control for the full effect not named in the record. Potency, µM (top dose mostly 32.9 µM), for inactives: at the top dose activity, positive = growth rescue. 330,000 tested, 0.19% active. AID 485353, 2010; active means well fitted rising curve with a large enough effect; inconclusive means small, poorly fitted or top-dose-only effect; inactive means no such curve, though single readings can be large or run the other way; also: 0% is about no effect; nearly all actives have a fitted effect of over 55% in size; growth read by luminescence after 48 h
2A StopGo = High Throughput Screening for Foot and Mouth Disease Virus Antivirals; human cells with a luciferase reporter of 2A StopGo recoding; control for the full effect not named in the record; Potency, µM (series often up to 57.9 µM), for inactives: top-dose signal change, negative = less light; 410,000 tested, 1.2% active; AID 1159524, 2015; active = well fitted falling curve with a large enough effect; inconclusive = small, poorly fitted or top-dose-only effect; inactive = no such curve, though single readings can be large or run the other way; tested in HEK293T cells; also: % is scaled to controls: 0 for no effect and ±100 for the full control effect; nearly all actives have a fitted effect of over 45% in size; luciferase light after 4 h
Starred values were filed as active, the others as inactive; ? = inconclusive; . = no result given; & = joins results of further samples; [ ] = another dose, or the depositor's remark. Unless noted, calls follow the shape of the dose curve; as a rule, active = well fitted curve in the direction sought with a large enough effect; inconclusive = small, poorly fitted or top-dose-only effect, or another doubt; inactive = no such curve, though single readings can be large; an effect the other way counts as inactive or inconclusive. Potency is read from the fitted curve at half-maximal effect.

SMILES	Lassa entry inh	Cruzain inh noDet	Cruzain Triton	NS1 inh	RE007 growth inh	Marburg entry inh	SARS PLpro yeast	2A StopGo
CCCCCCOc1ccc(NC(=O)CC2C(=O)N(CC)C(=S)N2Cc2ccco2)cc1 (stereo unspecified)	?	14%	-8.0%	25%	-2%	?	-31%	-12%
O=C(NN=C1CCCCC1)c1ccccc1-n1cccc1	.	.	.	9%	-9%	.	-2%	2%
Cc1cccc(N2CCN(C(=O)c3ccc4c(c3)OCCO4)CC2)c1C	?	.	.	.	-5%	-28%	-1%	11%
Cc1cc(C)n(C(C)CC(=O)NCc2ccc(N(C)C)cc2)n1 (stereo unspecified)	-6%[46.1 µM]	-5%	-0.8%	.	.	.	.	-11%
Cc1cccnc1Nc1ncnc(N)c1[N+](=O)[O-]	-5%	.	.	.	-10%	-1%[46.1 µM]	-2%	4%
COc1ccc(CCN2C(=O)CSC2=S)cc1OC	?	.	.	-6%	-8%	?	1%	7%
O=C1NC(=O)/C(=C/c2cccc3ccccc23)S1	?	.	.	-164%	-24%	?	-18%	13%
N#CCCN(C(=O)COC(=O)CCc1c[nH]c2ccccc12)c1ccccc1	-28%	.	.	.	0%	-7%	0%	-11%
CSc1nsc(SCC(=O)Nc2nc3ccc(C)cc3s2)n1	.	?	-2.7%	5%	-6%	.	2%	35%[activator]
CSc1nnc(-c2cccs2)n1C	5%	.	.	0%	?	?	0%	8%
O=S(=O)(c1ccccc1)N1CCN(C(=S)Nc2ccccc2Cl)CC1	-24%	.	.	-26%	9%	-21%	10%	2%
CCCCN(C)CCNC(=O)c1nn(-c2ccc(OC)cc2)c(=O)c2c1c1ccccc1n2C	-7%[46.1 µM]	-8%	-1.3%	.	-3%	6%&6%[46.1 µM]	3%	?
CCOc1ccc(N/C(=N/c2nc(C)cc(C)n2)NC(=O)CC)cc1	.	.	.	2%	0%	.	1%	-11%
COc1ccccc1N1CCN(CCCCN2C(=O)C3CCCCN3C2=O)CC1 (stereo unspecified)	15%	.	.	-5%	-16%	-3%	1%	1%
OCCNc1ncnc2c1c(-c1ccccc1)c(-c1ccccc1)n2Cc1ccco1	?	?	-10%	18%	23%	?	-6%	-4%
O=C(CN1C(=O)/C(=C/c2ccc(F)cc2)SC1=S)NC1C=CS(=O)(=O)C1 (stereo unspecified)	.	.	.	-4%	12%	.	1%	-20%
Cc1cccc(N(C)C(=O)C2CCCN2S(=O)(=O)c2cccc3nsnc23)c1 (stereo unspecified)	.	.	.	-2%	7%	.	2%	-13%
O=C(CCCOc1ccccc1)N1CCN(S(=O)(=O)c2ccccc2)CC1	4%	.	.	.	-14%	0%	13%	5%
Cc1nn(C(=O)Cn2cc([N+](=O)[O-])cn2)c(C)c1Cl	5%[46.1 µM]	.	.	.	-21%	-4%[46.1 µM]	0%	2%
CCC(C)n1c(SCC(=O)NCCc2ccc(S(N)(=O)=O)cc2)nc2ccsc2c1=O (stereo unspecified)	16%&-4%	14%	-1.1%	-13%	-2%	-4%&1%	9%	-9%
CC(C)c1cnc2c(c1SCC(=O)O)c(=O)n(C)c(=O)n2C	-19%[46.1 µM]	-5%	-0.5%	.	.	.	.	4%
O=C(O)c1cn[nH]c1-c1cccc([N+](=O)[O-])c1	-11%	.	.	.	20%	-10%[46.1 µM]	-2%	-5%
Cc1cc(-n2c(SCC(=O)Nc3ccc(F)c(F)c3)nc3n[nH]c(C)c3c2=N)ccc1Cl	.	.	.	18%	3%	.	0%	5%
N#Cc1ccc(Sc2nc3ccccc3[nH]2)cc1C#N	-25%	-4%	2.3%	-8%	14%	?	5%	-24%
Cc1ccc(NC(=O)C2OCCc3ccccc32)cc1C (stereo unspecified)	?	.	.	3%	-18%	?	0%	77%[activator]

Compounds listed so far that have a cyano group, in the order listed:
SMILES	Lassa entry inh	Cruzain inh noDet	Cruzain Triton	NS1 inh	RE007 growth inh	Marburg entry inh	SARS PLpro yeast	2A StopGo
N#CCCN(C(=O)COC(=O)CCc1c[nH]c2ccccc12)c1ccccc1	-28%	.	.	.	0%	-7%	0%	-11%
N#Cc1ccc(Sc2nc3ccccc3[nH]2)cc1C#N	-25%	-4%	2.3%	-8%	14%	?	5%	-24%

Other structures follow.
SMILES	Lassa entry inh	Cruzain inh noDet	Cruzain Triton	NS1 inh	RE007 growth inh	Marburg entry inh	SARS PLpro yeast	2A StopGo
CC1CCCC(NC(=O)CNCc2ccccc2F)C1C (stereo unspecified)	?	.	.	.	0%	-3%	-1%	10%
Clc1ccc(Cc2nnc(-c3ccccc3Br)o2)cc1	9%	-4%	-4.4%	-54%	-9%	0%	-14%	37%[activator]
CNC(=O)NC(=O)C(C)OC(=O)c1ccc(Cl)c(S(=O)(=O)Nc2ccc(F)cc2)c1 (stereo unspecified)	17%	.	.	1%	0%	?	1%	48%[activator]
CCOC(=O)N1CCC(N2Cc3cccc(C(=O)NCc4ccc(C)cc4)c3C2=O)CC1	.	?	-4.7%	-46%	4%	0%	3%	-28%
C=CCC(CC=C)(NC(=O)c1ccccc1C)c1ccccc1	16%	?	1.2%	9%	-14%	2%	2%	-20%
CCOc1cccc(NC(=O)CC#N)c1	2%	-1%	-9.6%	5%	-17%	?	5%	-11%
COc1ccc(CNC(=O)c2cc(C)nn2-c2ccccc2)cc1	.	.	.	4%	-1%	.	0%	4%
Cc1cc2ccccc2n1CCNC(=O)c1ccc(Br)o1	.	.	.	3%	18%	.	1%	32%[activator]
Cc1nn2c(N3CCCC3)cc(C(C)C)nc2c1-c1ccccc1	6%	-3%	-9.2%	-50%	-9%	-3%	1%	-3%
Cc1nc(Cl)c2oc3ccccc3c2n1	?	3%	1.4%	1%	?	12%	-2%	0%
Cc1ccccc1-n1c(C)nnc1SCC(=O)NCC1CCCO1 (stereo unspecified)	10%	-6%	3.6%	-4%	-9%	-3%	-21%	-19%
O=C(CN1C(=O)NC2(CCCC2)C1=O)Nc1ccccc1F	5%	0%	-1.2%	-13%	-5%	1%	6%	21%
CCN(C(=O)Cn1c(C(=O)OC)cc2oc3ccccc3c21)c1cccc(C)c1	.	-2%	-18%	.	.	-10%[46.1 µM]	.	?
COc1ccc(C2=NCCc3cc(OC)c(OC)cc32)cc1	3%	-7%	-10%	0%	7%	?	-12%	1%
CC(C)(C)c1csc(NC(=O)CSC2=NCCS2)n1	?	.	.	?	-4%	-15%[46.1 µM]	-3%	-8%
COC(=O)C1=C(C)NC(=O)C1(Nc1nccs1)C(F)(F)F (stereo unspecified)	-2%	-11%	-0.4%	-3%	4%	-2%	-3%	-15%
O=C(NC1CC2CCCC(C1)N2C(=S)Nc1ccccc1)C1CC1 (stereo unspecified)	-2%[46.1 µM]	.	.	3%	4%	3%[46.1 µM]	0%	5%
O=C(Cn1nnc(-c2ccccc2)n1)NCc1ccc2c(c1)OCO2	2%	-22%	6.5%	?	-2%	?	0%	-19%
CCS(=O)(=O)N1CCN(c2ccc([N+](=O)[O-])c(N3CCOCC3)c2)CC1	9%	-2%	-12%	-1%	2%	-7%	24%	-3%
O=C(c1ccc2oc(CCCc3ccccc3)nc2c1)N1CCCCC1CO (stereo unspecified)	12%	.	.	-9%	4%	11%	-3%	16%
Cc1cccc(C(=O)Nc2ccccc2SCC2CSc3nc4ccccc4c(=O)n32)c1 (stereo unspecified)	6.3µM*	-6%	0.3%	17%	11%	0.89µM*	3%	-24%
CCOc1ccc(C(=O)NCc2ccc3c(c2)CCN3C(=O)c2ccccc2)cc1	18%[46.1 µM]	?	-1.5%	.	.	.	.	-24%
COC(=O)NC(NS(=O)(=O)c1ccccc1)(C(=O)OC)C(F)(F)F (stereo unspecified)	-2%	.	.	10%	-1%	5%[46.1 µM]	1%	-16%
Cc1ccccc1C(=O)N1CCC(C(=O)Nc2ccc3c(c2)OCCO3)CC1	-9%	-9%	0.2%	2%	0%	-20%[46.1 µM]	1%	-6%
CC(=O)Nc1cccc(NC(=O)CSc2nccn2Cc2ccc(F)cc2)c1	3%[46.1 µM]	.	.	0%	-21%	14%[46.1 µM]	-5%	-28%
CCCCCN(C(=O)CCC(=O)OCc1cccc(Br)c1)c1c(N)n(CCCC)c(=O)[nH]c1=O	0%	.	.	.	-11%	-10%	5%	7%
Cc1c(-n2c(-c3ccccc3Cl)n[nH]c2=S)c(=O)n(-c2ccccc2)n1C	5%[46.1 µM]	.	.	.	-12%	1%[46.1 µM]	3%	-10%

A section of the results above, for reference:
SMILES	Lassa entry inh	Cruzain inh noDet	Cruzain Triton	NS1 inh	RE007 growth inh	Marburg entry inh	SARS PLpro yeast	2A StopGo
COC(=O)NC(NS(=O)(=O)c1ccccc1)(C(=O)OC)C(F)(F)F (stereo unspecified)	-2%	.	.	10%	-1%	5%[46.1 µM]	1%	-16%
Cc1ccccc1C(=O)N1CCC(C(=O)Nc2ccc3c(c2)OCCO3)CC1	-9%	-9%	0.2%	2%	0%	-20%[46.1 µM]	1%	-6%
CC(=O)Nc1cccc(NC(=O)CSc2nccn2Cc2ccc(F)cc2)c1	3%[46.1 µM]	.	.	0%	-21%	14%[46.1 µM]	-5%	-28%
CCCCCN(C(=O)CCC(=O)OCc1cccc(Br)c1)c1c(N)n(CCCC)c(=O)[nH]c1=O	0%	.	.	.	-11%	-10%	5%	7%
Cc1c(-n2c(-c3ccccc3Cl)n[nH]c2=S)c(=O)n(-c2ccccc2)n1C	5%[46.1 µM]	.	.	.	-12%	1%[46.1 µM]	3%	-10%

Compound activity (PubChem)
